Compound activity as filed in PubChem BioAssay.
PINK1 modulator = A Quantitative High throughput Screen to Identify Chemical Modulators of PINK1 Expression. PINK1 immunofluorescence, high-content cytometry, 24 h. Potency, µM (series often up to 76.6 µM), for the others: at the top dose activation (PINK1 increase), actives largely listed as activators. hit rate 0.2% among 410,000; active = well fitted activation curve with a large enough effect; inconclusive = small, poorly fitted or top-dose-only effect; inactive = flat fitted curve, though single readings scatter; cell line not stated here;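 also: potency is read from the fitted curve at half-maximal effect; % of control where 0% means no effect; nearly all actives have a fitted effect of over 65% in size; a mitochondrial uncoupler was the plate control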
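Measures PINK1 amount and localization on or inside mitochondria by immunofluorescence. Stable cells get compounds at 5 concentrations for 24 hours before fixation and staining; CCCP controls included.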
D2 potentiator = Beta-Arrestin HTS for Positive Allosteric Modulators of the Human D2 Dopamine Receptor: Potentiators; D(2) dopamine receptor (Homo sapiens), P14416; DiscoveRx D2 beta-arrestin cells, luminescence, 90 min; 100% = 57 uM dopamine signal; potentiation, % (no concentration beside the values); hit rate 0.23% among 360,000; active = potentiation of 50% or more; inconclusive = 30% to 50%; inactive = 30% or less;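 also: compound concentration not given in the record; tested on top of an EC20 dose of dopamine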
Target sequence (P14416 whole entry, looked up): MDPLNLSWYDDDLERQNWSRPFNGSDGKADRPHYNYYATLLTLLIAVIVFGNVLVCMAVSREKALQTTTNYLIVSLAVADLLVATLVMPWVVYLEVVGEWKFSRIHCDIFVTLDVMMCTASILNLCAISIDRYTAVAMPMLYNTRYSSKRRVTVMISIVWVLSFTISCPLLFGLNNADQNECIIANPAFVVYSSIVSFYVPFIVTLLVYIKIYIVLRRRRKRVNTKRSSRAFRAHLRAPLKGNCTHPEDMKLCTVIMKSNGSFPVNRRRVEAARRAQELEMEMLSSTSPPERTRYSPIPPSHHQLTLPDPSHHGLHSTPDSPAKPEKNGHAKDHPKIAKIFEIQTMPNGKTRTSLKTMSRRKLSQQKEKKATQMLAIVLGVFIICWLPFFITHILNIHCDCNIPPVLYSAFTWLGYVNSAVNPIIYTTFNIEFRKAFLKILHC
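D2 cells co-treated with compound plus 50 nM dopamine (EC20) for 90 min at 37 deg C to detect potentiation. Beta-arrestin recruitment was read as enzyme-fragment luminescence after 1 h at ambient temperature. Full response was set by 57 uM dopamine.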
D2 agonist = Beta-Arrestin HTS for Positive Allosteric Modulators of the Human D2 Dopamine Receptor: Agonists. D(2) dopamine receptor (Homo sapiens), P14416. DiscoveRx PathHunter D2 beta-arrestin, luminescence, 90 min; 100% = 57 uM dopamine signal. activation, % (no concentration beside the values). hit rate 0.084% among 360,000. AID 624465, 2012; in the data active = activation above about 40%; inconclusive = about 15% to 40%; inactive = below about 15%; also: compound concentration not given in the record; the text of the record calls up to 30% inactive
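Agonist mode: compounds alone added to overnight-plated D2 PathHunter cells for 90 min at 37 C, with 57 uM final dopamine (EC100) defining full response. Beta-arrestin recruitment detected by chemiluminescent reagent, read after 1 h at ambient temperature.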
Six1-Eya2 inh = qHTS Assay for Inhibitors of the Six1/Eya2 Interaction | activity change, % (test concentration not listed) | hit rate 0.56% among 360,000 | Homeobox protein SIX1 (Homo sapiens) + Protein phosphatase EYA2 (Homo sapiens), … | AlphaScreen GST-Six1/His-Eya2 binding, biochemical; active compounds read low; control for the full effect not named in the record | AID 651725, 2012; in the data active = activity change below about -65%; inconclusive = about -30% to -65%; inactive = above about -30%; also: % is scaled to controls: 0 for no effect and ±100 for the full control effect
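GST-Six1 + His-Eya2 (5X stock: 250/500 nM); Tris pH 8.0, 300 mM NaCl, 0.05% BSA, 0.02% Tween 20; GSH donor/Ni acceptor beads; 1 h 37 °C dark; AlphaScreen readout.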
Sfp inh = qHTS Assay for Inhibitors of Bacillus subtilis Sfp phosphopantetheinyl transferase (PPTase) | Biochemical Sfp PPTase activity, qHTS | hit rate 3.5% among 310,000 | 4'-phosphopantetheinyl transferase ffp (Bacillus subtilis), Q9F4F7 | Potency, µM, for the others: max response, negative = inhibition, most hits filed as inhibitors; active = well fitted inhibition curve with a large enough effect; inconclusive = small, poorly fitted or top-dose-only effect, or another doubt; inactive = no such curve, though single readings can be large or run the other way;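 also: the enzyme is Sfp with the accession as filed and its product quenches rhodamine fluorescence; potency is read from the fitted curve at half-maximal effect; 0% = enzyme reaction without inhibitor and -100% = no enzyme wells; top concentration of the series not given in the record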
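After 15 min at room temperature with compound, 15 nM Sfp received 5 uM rhodamine-CoA plus 12.5 uM BHQ-2-ybbR (50 mM Hepes pH 7.6, 10 mM MgCl2). Rate came from the fluorescence difference over 30 min, ex 525/em 598 nm.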
TRPV1 potentiator = HTS Assay for Compounds that Act as Potentiators of the Vanilloid Receptor 1; Transient receptor potential cation channel subfamily V member 1 (Homo sapiens), Q8NER1; TRPV1-expressing cells, Fluo-8 calcium influx, capsaicin EC20 potentiation; host cell line not named in the record; control for the full effect not named in the record; potentiation, % at 8.33 µM; hit rate 0.02% among 320,000; AID 540277, 2011; active means potentiation above 80%; inconclusive means 30% to 80%; inactive means below 30%; also: 0% is about no effect
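Fluo-8 calcium influx in TRPV1-expressing cells, kinetic read (ex 480/em 520 nm). Compound added and read 3 min for agonist activity, followed by capsaicin at EC20 final and 2 min further read for enhancement.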
CtBP-E1A inh = qHTS Assay for Inhibitors of the CtBP/E1A Interaction; CtBP / adenovirus E1A interaction (AlphaScreen); AlphaScreen GST-E1A/His-CtBP binding, 1536-well; active compounds read low; control for the full effect not named in the record; activity change, % (test concentration not listed); hit rate 0.49% among 340,000; AID 651724, 2012; in the data active means activity change below about -65%; inconclusive means about -30% to -65%; inactive means above about -30%; also: % is scaled to controls: 0 for no effect and ±100 for the full control effect
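AlphaScreen with 125 nM GST-E1A and 125 nM His-CtBP (5X stocks) in Tris pH 8.0, 300 mM NaCl, BSA, Tween 20, TCEP. Compounds preincubated 2 h at 37 deg C, then glutathione donor/nickel acceptor beads added for 1 h at 37 deg C in dark.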
An asterisk follows results filed as active; ? = inconclusive; . = not tested or not shown.

SMILES | PINK1 modulator | D2 potentiator | D2 agonist | Six1-Eya2 inh | Sfp inh | TRPV1 potentiator | CtBP-E1A inh
COc1ccccc1NC(=O)c1ccc(S(=O)(=O)NCc2ccco2)cc1 | -1.5% | -0.5 | 3.9 | 4.9 | 7.7% | -4.2 | 0.7
O=C(Nc1cc(SCCO)cc([N+](=O)[O-])c1)c1ccco1 | 2.9% | -7.4 | -4.4 | 3.6 | 13.4% | 3.9 | 3.3
O=C(NC1CCCCCCC1)c1cc(COc2ccc3ncccc3c2)on1 | ? | -3.0 | 1.1 | -5.4 | -12.9% | -4.4 | -4.1
COc1ccc(CCNc2oc(COc3ccccc3F)nc2C#N)cc1OC | -0.4% | 1.3 | -0.8 | -14.3 | 0.7% | -3.5 | -16.2
CC(C)c1ccc(C(=O)NCCCN(C)C)cc1 | 1.2% | -3.5 | -1.2 | 11.4 | 6.4% | 1.3 | -11.7
O=C(NNS(=O)(=O)c1ccccc1)C1CC(c2cccnc2)=NO1 (stereo not given) | -0.8% | 0.9 | 2.1 | 5.1 | -1.6% | -1.9 | -25.4
C[C@H](CO)N1C[C@H](C)[C@H](CN(C)Cc2ccccc2)Oc2ccc(NC(=O)Nc3ccc(F)cc3)cc2C1=O | 14.5% | -5.5 | 5.5 | -18.0 | . | . | -7.8
COc1ccc(C(C(=O)NC2CCCC2)N(CCO)C(=O)Cn2nnc(-c3ccc(C)o3)n2)cc1OC (stereo not given) | -2.8% | -2.2 | -4.2 | 2.4 | -1.3% | 6.0 | -1.1
CCCCCC(=O)Nc1nc(C)c(-c2csc(Nc3cc(Cl)ccc3OC)n2)s1 | 1.1% | -5.2 | -2.4 | -12.8 | -4.5% | -11.4 | -16.5
O=C(CCC(=O)N(CC(=O)NC1CCCCC1)c1ccccc1F)Nc1nccs1 | 23.8% | -8.6 | -5.2 | 8.4 | 11.5% | 9.6 | 25.0
O=C(CNC(=S)N(Cc1ccccc1F)C1CCCCC1)NCC1CCCO1 (stereo not given) | 1.5% | -2.5 | -2.4 | -20.1 | 4.5% | -0.7 | 0.0
COc1ccc(-c2nn(-c3ccccc3)cc2C(=O)N2CCN(C(=O)c3ccco3)CC2)cc1 | 2.4% | -1.8 | 0.0 | 2.6 | . | . | 1.1
CCN=C1SC(CC(=O)Nc2sc(C)c(C)c2C(=O)OC)C(=O)N1CC (stereo not given) | -0.9% | -5.9 | -1.1 | 9.1 | 12.1% | 2.2 | -3.9
O=C(COC(=O)C1CCCCC1)Nc1ccccc1OC(F)F | 4.4% | -1.9 | -4.2 | 21.1 | -2.0% | -10.7 | 15.0
NC1=NC(=Nc2ccc(S(N)(=O)=O)cc2)c2ccccc21 | 0.2% | -9.1 | -2.0 | 8.0 | 29.6% | 5.2 | 1.5
O=C(COC(=O)CNC(=O)c1ccccc1)Nc1ccc(S(=O)(=O)N2CCCC2)cc1 | 2.8% | -4.4 | 1.6 | 4.8 | 22.0% | -1.7 | 2.0
O=C(NCc1cc(C(F)(F)F)cc(C(F)(F)F)c1)C1CC(c2ccccc2[N+](=O)[O-])=NO1 (stereo not given) | 0.7% | -14.2 | -0.1 | 7.4 | 10.9% | 6.8 | .
O=C(COc1ccccc1Cl)Nc1ccc(C(=O)N2CCCCC2)cc1 | -0.2% | -3.4 | -3.7 | -2.9 | 0.2% | 9.7 | -6.6
COc1ccc(/C=N/NC(=O)CNC(=O)c2ccc(S(=O)(=O)N3CCOCC3)cc2)cc1OC | 2.4% | -13.9 | -5.3 | 3.5 | -4.9% | -2.5 | -6.1
O=C(/C=C/c1cccs1)NC1CCCC1 | -1.5% | -7.7 | -2.8 | 1.1 | 14.6% | -12.0 | -1.1
O=C(OC(C(=O)NC1CCCCC1)c1ccccc1F)c1ccco1 (stereo not given) | 1.7% | -3.2 | -1.1 | -3.4 | -10.2% | 3.0 | 4.7
CCc1ccc(S(=O)(=O)Nc2ccc(N3CCN(C)CC3)cc2)cc1 | 0.2% | -23.2 | 0.9 | -5.1 | -4.3% | 5.1 | -0.1
COc1ccc(NS(=O)(=O)c2ccc(C(=O)N3CCC(C)CC3)cc2)cc1 | -0.9% | -2.8 | 10.2 | -3.2 | . | . | 5.7
Cc1cc(C)cc(OC(=O)c2cccnc2)c1 | 1.3% | -2.0 | -2.2 | 6.1 | 2.0% | -16.7 | 10.5
O=C(COc1ccc(S(=O)(=O)N2CCCC2)cc1Cl)NCc1ccccn1 | -1.3% | -1.6 | -0.7 | 3.1 | 4.4% | 10.8 | -0.7

Pulled by compound from the list above:
SMILES | PINK1 modulator | D2 potentiator | D2 agonist | Six1-Eya2 inh | Sfp inh | TRPV1 potentiator | CtBP-E1A inh
O=C(COC(=O)C1CCCCC1)Nc1ccccc1OC(F)F | 4.4% | -1.9 | -4.2 | 21.1 | -2.0% | -10.7 | 15.0
COc1ccc(/C=N/NC(=O)CNC(=O)c2ccc(S(=O)(=O)N3CCOCC3)cc2)cc1OC | 2.4% | -13.9 | -5.3 | 3.5 | -4.9% | -2.5 | -6.1
O=C(/C=C/c1cccs1)NC1CCCC1 | -1.5% | -7.7 | -2.8 | 1.1 | 14.6% | -12.0 | -1.1
O=C(NC1CCCCCCC1)c1cc(COc2ccc3ncccc3c2)on1 | ? | -3.0 | 1.1 | -5.4 | -12.9% | -4.4 | -4.1
O=C(CCC(=O)N(CC(=O)NC1CCCCC1)c1ccccc1F)Nc1nccs1 | 23.8% | -8.6 | -5.2 | 8.4 | 11.5% | 9.6 | 25.0

More results:
SMILES | PINK1 modulator | D2 potentiator | D2 agonist | Six1-Eya2 inh | Sfp inh | TRPV1 potentiator | CtBP-E1A inh
Cc1nnc(SCc2cccc(CSc3nnc(C)s3)c2)s1 | 0.9% | 5.7 | 0.0 | -0.6 | 6.0% | -6.8 | 8.4
CC1CCCN(S(=O)(=O)c2cccc(C(=O)NCCCN3CCCC3=O)c2)C1 (stereo not given) | -2.0% | -19.0 | -2.8 | 13.7 | . | . | -5.4
N#Cc1ccc(C(=O)Nc2cc(S(=O)(=O)N3CCOCC3)ccc2N2CCCC2)cc1 | 2.4% | -4.6 | -2.8 | 17.1 | . | . | 8.6
CC(C)N1CCN(Cc2ccsc2)CC1CCO (stereo not given) | -0.3% | -7.4 | -3.8 | -9.1 | 8.0% | -5.3 | 1.0
Cc1cc(NC(=O)CN(C)CC(=O)Nc2ccc(Cl)cc2)no1 | 0.2% | -11.4 | -0.1 | -3.7 | . | . | .
CCC(C)NC(=O)CC(C)C (stereo not given) | 0.2% | 2.3 | -5.2 | 4.7 | 13.2% | -13.6 | 4.4
CCOC(=O)Cc1csc(NC(=O)CC(C)(C)C)n1 | 0.0% | -10.6 | -2.2 | -10.8 | 9.7% | 9.1 | -11.1
CCOC(=O)N1CCN(c2c(NCCN3CCCCC3CC)c(=O)c2=O)CC1 (stereo not given) | 0.0% | -2.4 | -3.2 | 8.4 | 9.2% | -4.2 | -2.2
CCOC(=O)N1CCC(N2CCN(CCC(C)C)C(CCO)C2)CC1 (stereo not given) | -0.8% | -7.5 | -0.1 | 4.9 | 19.7% | 3.1 | .
CCOC(=O)[C@]12CCC=C1N(CCC1=CCCCC1)C(=O)[C@H](CC(=O)NCCc1ccccc1OC)C2 | 1.2% | . | . | -7.8 | . | . | 0.4
O=c1[nH]nc(-c2ccc(NCCO)c([N+](=O)[O-])c2)c2ccccc12 | 1.3% | -1.6 | -2.7 | -12.5 | 9.8% | 19.8 | -19.5
CCOC(=O)c1nn(-c2ccccc2)c(=O)c2c(NC(C)=O)scc12 | 11.9% | 1.2 | -7.2 | 22.6 | 15.6% | 10.3 | -20.9
COc1ccc(NC(=S)Nc2ccccn2)c(OC)c1 | -0.9% | -12.0 | -0.1 | -6.6 | 6.5% | -8.3 | -10.6
CCCCOc1ccc(-n2nc(C)cc2C)nn1 | 2.6% | -2.9 | -0.7 | 17.0 | 3.9% | 1.4 | 13.2
Oc1ccc(/C=N/Nc2ccccc2)cc1 | 4.3% | -0.2 | 2.2 | -5.0 | 4.1% | 5.2 | 7.8
COc1ccc([N+](=O)[O-])cc1NS(=O)(=O)c1cccc(C(=O)NCCCN2CCCC2=O)c1 | 0.3% | -7.8 | 0.6 | 7.0 | . | . | 4.5
Cc1cc(CN(C)C(=O)C2CCC(=O)N(CCc3ccccc3)C2)n[nH]1 (stereo not given) | 1.3% | -19.7 | 1.1 | 4.8 | 11.0% | -3.1 | 1.7
CCOC(=O)Cc1nnc(NC(=O)c2ccccc2OC)s1 | 0.3% | 4.1 | -2.7 | -2.9 | -7.7% | 7.9 | 0.0
COc1ccc(OC)c(NC(=O)CN(C)CC(=O)Nc2ccccc2Cl)c1 | -1.6% | 6.9 | 2.7 | -9.2 | -4.2% | -9.8 | -1.0
CCCc1cc(=O)oc2cc(OCC(=O)NC(Cc3ccc(Cl)cc3)C(=O)O)ccc12 (stereo not given) | -0.2% | -34.9 | -2.8 | -3.0 | 17.6% | 14.2 | -5.0
Cc1cc(=O)[nH]c(N/N=C/c2c(C)nn(-c3ccccc3)c2C)n1 | 2.3% | 12.8 | 0.7 | ? | -19.8% | -13.2 | ?
Cc1ccccc1-n1c(C)cc(/C=C(\C#N)C(=O)NCC2CCCO2)c1C (stereo not given) | 4.4% | -24.5 | -3.3 | -5.9 | 1.6% | -12.0 | -3.2
COc1ccc(C(=O)N/C(=C/c2cccnc2)C(=O)N2CCCCCC2)cc1OC | -1.6% | -9.7 | 5.9 | 0.3 | 9.9% | 13.4 | -17.7
Cc1cc(C)cc(Cn2cc(CN3CC(N4CCN(CCN(C)C)CC4)CS3(=O)=O)nn2)c1 (stereo not given) | 0.4% | . | . | -8.6 | . | . | -0.8
CCOC(=O)C1C(=O)OC(C)(C)C1C(CC)C(=O)c1ccccc1 (stereo not given) | 3.3% | 18.9 | 3.4 | 5.2 | 5.7% | 0.4 | 20.9
